VACV mCherry inh: qHTS for Stage-Specific Inhibitors of Vaccinia Orthopoxvirus: mCherry Reporter Primary qHTS; Vaccinia virus mCherry reporter infection, fluorescence; about a quarter of the inactives have no number; Potency, µM (doses to about 36.5 µM), for the others: at the highest dose activity change, negative = inhibition, most hits filed as inhibitors; AID 720579, 2013; hit rate 0.63% among 310,000; active = well fitted inhibition curve with a large enough effect; inconclusive = small, poorly fitted or top-dose-only effect; inactive = no such curve, though single readings can be large or run the other way; tested in A549 cells; also: nearly all actives have a fitted effect of over 35% in size; inactives centre near -10
VACV Venus inh: qHTS for Stage-Specific Inhibitors of Vaccinia Orthopoxvirus: Venus Reporter Primary qHTS | Potency, µM (titrated, usually from 36.5 µM), inactives show top-dose activity change, negative = inhibition, hits mostly inhibitors | Vaccinia virus Venus reporter expression, fluorescence | AID 720580, 2013 | hit rate 0.46% among 330,000; active means well fitted inhibition curve with a large enough effect; inconclusive means small, poorly fitted or top-dose-only effect; inactive means no such curve, though single readings can be large or run the other way; tested in A549 cells; also: nearly all actives have a fitted effect of over 30% in size; inactives centre near -10
An asterisk follows results filed as active; i = inactive; ? = inconclusive; / = not tested or not shown; & = joins results of further samples; ! = not active in a repeat; [ ] = dose if it differs, or a comment. % is scaled to controls: 0 for no effect and ±100 for the full control effect; potency is read from the fitted curve at half-maximal effect.

SMILES	VACV mCherry inh	VACV Venus inh
O=C(CCc1nc(CN2CCN(S(=O)(=O)c3ccc(Br)cc3)CC2)no1)N1CCCCC1	-19%	-9%
O=C(NCCN1CCC(n2c(=O)[nH]c3ccccc32)CC1)c1ccc(F)c(F)c1	3%	-7%
COc1ccc(Cl)cc1NC(=O)c1sc2nc3c(cc2c1N)CN(C)CC3	-11%	-7%
CN1CCC/C1=C/C=C1\SC(=S)NC1=O	i	-5%
COc1ccc(NC(=O)c2c(NCc3ccc(OC)c(OC)c3OC)sc3c2CCC3)c(OC)c1	-15%	-3%
CCOc1ccc(NC(=O)c2cc3c(n(-c4ccc(OC)cc4)c2=O)CC(C)(C)CC3=O)cc1	-5%	-8%
O=C(NCc1cc(C(F)(F)F)ccc1Cl)c1cccc2c1C(=O)c1ccc(N3CCCCC3)cc1S2(=O)=O	-7%	2%
COc1ccc(-c2c(C)c3cc(OC(=O)N4CCOCC4)ccc3oc2=O)cc1OC	-11%	4%
CC(C)Oc1ccc2c(c1)OC(c1ccccc1)(C(F)(F)F)NC2=O (stereo not given)	i	-28%
COc1ccc(S(=O)(=O)n2nc(OC(=O)c3ccccc3)cc2N)cc1	-9%	-3%
COc1cc(C(=O)NC(=S)N2CCN(C)CC2)cc(OC)c1OC	i	5%
CCC(C)NC(=O)CN(c1ccc(Cl)c(Cl)c1)S(C)(=O)=O (stereo not given)	-5%	-16%
O=C(Nc1nc(-c2ccccc2)cs1)c1cccs1	?	?
Cc1c(C(=O)Nc2cccc(Cl)c2)oc2ccc(S(=O)(=O)N3CCCCCC3)cc12	-16%	-19%
CN(C)CCNC(=O)C(=O)NCC1OCCN1S(=O)(=O)c1ccc([N+](=O)[O-])cc1 (stereo not given)	i	-7%
CN(CC(=O)Nc1cccc(S(=O)(=O)NC2=NCCCCC2)c1)Cc1ccc(C(C)(C)C)cc1	i	-22%
CCn1cc(CCC(=O)NC2CCCC2)c2ccccc21	-7%	-13%
CCOC(=O)c1c(NC(=O)c2ccn(CC)n2)sc2c1CCCC2	-5%	-16%
COc1cccc(-c2nc3cc4c(cc3cc2CN(C(=O)c2csc(C)n2)C2CC2)CCC4)c1OC	?	-24%
COc1cccc(C(NC(C)=O)c2ccc3cccnc3c2O)c1 (stereo not given)	?	?
Cc1ccc(S(=O)(=O)N2c3cc(C)ccc3OCC2C(C)(C)C)cc1 (stereo not given)	-19%	?
Cc1cc2nccc(-c3ccncc3)n2n1	-24%	-16%
CCc1ccccc1NC(=O)NC1CC2CCC(C1)N2Cc1ccco1 (stereo not given)	i	-9%
O=c1oc2cc(O)ccc2cc1-c1nc2ccccc2o1	i	-2%
O=C(COC(=O)c1ccc(F)cc1Cl)NCc1ccco1	i	6%
CCC1Oc2ccccc2N(CC(=O)N2CCCC2)C1=O (stereo not given)	?	-7%
CSc1nc(-c2ccccc2)cc(C(F)(F)F)c1C#N	i	-5%
Cc1ccc(OCc2nnc(SCC(=O)NCc3ccccc3)n2C)cc1	/	-16%
CCOC(=O)C1=C(C)N(C)C(=O)NC1c1c(C)nn(-c2ccccc2)c1C (stereo not given)	/	-9%
CCn1c(SCC(=O)Nc2cc(C)on2)nnc1-c1ccc(C)cc1	?	1%
CCCCOc1ccc2c(c1)/C(=C(\C(Cl)=C(Cl)Cl)[N+](=O)[O-])N2	i	15%
COc1ccc(-c2nn(C)c(=O)c3ccccc23)cc1NS(C)(=O)=O	-9%	-7%
CCOC(=O)c1c(-c2ccccc2)oc2ccc(OC(C)=O)cc12	?	-24%
O=C(CCNS(=O)(=O)c1ccc2c(c1)CCCC(=O)N2)NCc1ccccc1Cl	-8%	-9%
COc1cc(OC)c(OC)cc1CNCCNC(=O)c1ccco1	11%	-1%
COc1ccc(C(=O)NC2CC2)cc1OC1CCN(Cc2ccccc2O)CC1	-10%	-21%
Cc1oc(CSCC2CCCO2)cc1C(=O)O (stereo not given)	/	-9%
CCOc1ccccc1OCCC(=O)OCC(=O)Nc1c(C)cc(C)cc1C	i	-9%
CCc1cc2c(-c3ccccc3)cc(=O)oc2c2c1OCN(Cc1ccc(C)cc1)C2	-7%	-7%
COc1ccccc1N1CCN(C(=O)C2CC(=O)N(c3ccccc3)C2)CC1 (stereo not given)	17%	-2%
O=C(CCc1c[nH]c2ccccc12)N[C@@H](Cc1c[nH]c2ccc(O)cc12)C(=O)O	i	-17%
O=C(O)CCC(=O)c1ccc2sc3ccccc3c2c1	i	-5%
O=C(NCc1ccccn1)c1cnn(-c2nccc(-c3cc4ccccc4o3)n2)c1C1CC1	-10%	-7%
O=[N+]([O-])c1cc(S(=O)(=O)/N=C(/c2ccccc2)N2CCOCC2)ccc1Cl	-10%	-6%
CC1(c2nnc(Cc3ccccc3)o2)CC(c2ccc(Br)cc2)=NO1 (stereo not given)	-9%	-8%
CCOCCCNC(=O)CN1C2CCC1CC(O)(c1ccc(OC)cc1)C2 (stereo not given)	-18%	-1%
Cc1ccc([N+](=O)[O-])c(OCc2ncc(Cl)n2C)c1	17%	-2%
Cc1cc(-n2c(C)cc(C(=O)COC(=O)CN=C3NS(=O)(=O)c4ccccc43)c2C)no1	-13%	-2%
COc1ccc(CN(C)C(=O)/C=C/[C@H]2O[C@@H](n3cc(C)c(=O)[nH]c3=O)C[C@@H]2O)cc1OC	1%	-5%
COC(=O)c1c(NC(=O)C2COc3ccccc3O2)sc2c1CCN(Cc1ccccc1)C2 (stereo not given)	0%	-16%
CC1CC(C)CN(CCCOc2ccccc2[N+](=O)[O-])C1 (stereo not given)	-15%	-4%
CN(CCNC(=O)C1CCN(S(=O)(=O)N2CCOCC2)CC1)CCc1ccccc1	/	-24%
Cc1cc(C)c2c(n1)SCC(=O)N2CC(=O)Nc1ccc(F)cc1	-7%	0%
O=C(CCCOc1ccc(Cl)cc1)NCC1CCCO1 (stereo not given)	/	-21%
COc1ccc2c(c1)C(=O)N(c1ccc(C)cc1C)C(=O)C2	i	4%
Cn1c(=O)oc2cc(S(=O)(=O)N3CCCC(C(=O)NCc4ccc(F)cc4)C3)ccc21 (stereo not given)	-12%	-14%
OCCC1CN(CC#Cc2ccccc2)CCN1Cc1ccccc1F (stereo not given)	?	?
Cc1ccc(/C=C2/SC(=S)N(c3ccc(S(=O)(=O)Nc4nccs4)cc3)C2=O)cc1	i	5%
COc1ccc2nc(-c3ccccc3)nc(C3CCCCC3)c2c1	-26%	-3%
O=C(O)CN1C(=O)/C(=C/c2ccsc2)SC1=S	-1%	-7%

Rewritten with values under each structure: entries from further up
Results follow in this order: VACV mCherry inh | VACV Venus inh
> O=C(CCc1c[nH]c2ccccc12)N[C@@H](Cc1c[nH]c2ccc(O)cc12)C(=O)O
    i | -17%
> O=C(O)CCC(=O)c1ccc2sc3ccccc3c2c1
    i | -5%
> O=C(NCc1ccccn1)c1cnn(-c2nccc(-c3cc4ccccc4o3)n2)c1C1CC1
    -10% | -7%
> O=[N+]([O-])c1cc(S(=O)(=O)/N=C(/c2ccccc2)N2CCOCC2)ccc1Cl
    -10% | -6%
> CC1(c2nnc(Cc3ccccc3)o2)CC(c2ccc(Br)cc2)=NO1 (stereo not given)
    -9% | -8%
> CCOCCCNC(=O)CN1C2CCC1CC(O)(c1ccc(OC)cc1)C2 (stereo not given)
    -18% | -1%
> Cc1ccc([N+](=O)[O-])c(OCc2ncc(Cl)n2C)c1
    17% | -2%
> Cc1cc(-n2c(C)cc(C(=O)COC(=O)CN=C3NS(=O)(=O)c4ccccc43)c2C)no1
    -13% | -2%
> COc1ccc(CN(C)C(=O)/C=C/[C@H]2O[C@@H](n3cc(C)c(=O)[nH]c3=O)C[C@@H]2O)cc1OC
    1% | -5%
> COC(=O)c1c(NC(=O)C2COc3ccccc3O2)sc2c1CCN(Cc1ccccc1)C2 (stereo not given)
    0% | -16%
> CC1CC(C)CN(CCCOc2ccccc2[N+](=O)[O-])C1 (stereo not given)
    -15% | -4%
> CN(CCNC(=O)C1CCN(S(=O)(=O)N2CCOCC2)CC1)CCc1ccccc1
    / | -24%
> Cc1cc(C)c2c(n1)SCC(=O)N2CC(=O)Nc1ccc(F)cc1
    -7% | 0%
> O=C(CCCOc1ccc(Cl)cc1)NCC1CCCO1 (stereo not given)
    / | -21%
> COc1ccc2c(c1)C(=O)N(c1ccc(C)cc1C)C(=O)C2
    i | 4%

(further entries)
SMILES	VACV mCherry inh	VACV Venus inh
Cc1cnc2ccccc2c1/C=C/c1ccc(N)cc1	-28%	-21%
Cc1ccc(C(C(=O)NCc2ccc(F)cc2)N(Cc2ccco2)C(=O)c2snc(C(N)=O)c2N)o1 (stereo not given)	?	-16%
Cc1cc(C)c(NC(=O)Cn2c(=O)n(Cc3ccco3)c(=O)c3ccc(C(=O)NC4CCCC4)cc32)c(C)c1	-21%	-26%
Cc1nc(N)nc(N)c1Oc1ccc(Cl)cc1	-4%	-8%
Cc1ccc(S(=O)(=O)Nc2ccc(C(=O)N3CCN(c4ccccc4O)CC3)cc2)cc1[N+](=O)[O-]	-21%	-15%
O=C(NNS(=O)(=O)c1ccccc1)c1cc2cc3ccccc3nc2s1	-24%	-15%
CC(C)Sc1nnc(NC(=O)c2ccc3c(c2)OCO3)s1	-17%	-9%
Cc1ccc(C)n1-n1cnc2sc(-c3ccccc3)cc2c1=O	i	-14%
CC(C)CN(C(=O)CSc1ncnc2ccccc12)C1CCS(=O)(=O)C1 (stereo not given)	?	-12%
CC(C)N(Cc1ccccc1)S(=O)(=O)c1ccc2c(c1)NC(=O)CO2	-11%	0%
O=CC(Cl)P(=O)(N1CCCCC1)N1CCCCC1 (stereo not given)	i	-9%
CCCCCCc1cc2cc(C(=O)Nc3ccc(OC)cc3)c(=O)oc2cc1O	-15%	-2%
COC(=O)C1CCN(C(=O)CSc2nc3ccc(OC)cc3[nH]2)CC1	-5%	-8%
O=C1c2ccccc2-c2n[nH]c3cccc1c23	11µM*!	-16%
CCOC(=O)c1cc2nc(-c3ccco3)cc(C(F)(F)F)n2n1	/	1%
CSCCC1(C(=O)O)NC(c2ccccc2O)C2C(=O)N(C(C)C)C(=O)C21 (stereo not given)	15%	-4%
O=C(NC1CC(=O)N(c2cccc(F)c2)C1)c1ccc(S(=O)(=O)N2CCOCC2)cc1 (stereo not given)	-9%	-13%
COc1ccccc1C(=O)Nc1ccc2c(c1)CN(Cc1cnc(C)s1)CC2	-23%	-14%
Cc1cc(NS(=O)(=O)c2ccc(NC(=O)c3oc4ccccc4c3C)cc2)no1	i	-5%
O=C(NCCCN1CCOCC1)C(=O)NCC1OCCCN1S(=O)(=O)c1cc(F)ccc1F (stereo not given)	-16%	-12%
Oc1ccccc1-c1nc(/C=C/c2ccccc2Cl)no1	i	-6%
Cn1c(SCC(=O)Nc2ccccc2)nc2ccccc2c1=O	-9%	-11%
COc1ccc(C2C(C(=O)c3ccco3)=C(O)C(=O)N2CCOCCO)cc1OC (stereo not given)	-14%	-12%
O=c1[nH]c2ccccc2n1C1CCN(C(c2nnnn2-c2ccc3c(c2)OCCO3)C2CC2)CC1 (stereo not given)	-7%	-24%
CC1(C)CC(=O)C(C2=NC3(CCCCC3)Cc3ccccc32)=C(O)C1	-9%	4%
CCOC(=O)c1ccc(NC(=O)C(=O)NCc2ccc(/C=C(/C#N)C(=O)NCCOC)o2)cc1	12%	2%
CCCc1nnc(SCC(=O)NC2CC2)n1CC	i	-18%
CCC(C)C(=O)NCCc1ccc(S(N)(=O)=O)cc1 (stereo not given)	-3%	-1%
Cc1c(NC(=O)C(C)OC(=O)/C=C/c2ccco2)c(=O)n(-c2ccccc2)n1C (stereo not given)	-4%	-9%
O=C(O)c1ccccc1C(=O)N1N=C2/C(=C/c3cccc([N+](=O)[O-])c3)CCCC2C1c1cccc([N+](=O)[O-])c1 (stereo not given)	-14%	4%
Cc1ccc(/C=C\c2nccc3c2[nH]c2ccccc23)cc1	?	-16%&-19%
COc1ccc(C(=O)NC2CCN(C(=S)Nc3ccc(C)cc3)CC2)cc1	i	-6%
COc1cccc(C(=O)NN2CC(O)=C(c3nc4ccccc4s3)C2=N)c1	-13%	-17%
O=S(=O)(c1ccccc1Cl)N1CCCC(c2nc(-c3cccnc3)no2)C1 (stereo not given)	-20%	-19%
COc1ccc(Cl)cc1NC(=O)CN1CCC(n2nnc3cc(F)ccc32)CC1	-12%	-9%
COc1ccccc1-n1c(-c2ccoc2)nc2ccccc2c1=O	/	-18%
Cc1ccc(N2C(=O)C3C(C2=O)C2C=CC3C23CC3)c([N+](=O)[O-])c1 (stereo not given)	i	1%
COC(=O)c1ccc(NC(=O)c2ccc(NS(=O)(=O)c3cccc4cccnc34)cc2)cc1	-21%	-14%
CCc1ccc(-n2nnc(-c3nc(-c4ccc(C)cc4)no3)c2N)cc1	-8%[7.34 µM]	-5%[7.34 µM]
COc1cccc(C(=O)CC(=O)C(=O)Nc2ccc(C)cc2Cl)c1	-4%	-16%
NNC(=O)c1cccc(COc2ccc3c(c2)CCC3)c1	-20%	-20%
O=C(c1ccc(Cl)cc1)c1cc([N+](=O)[O-])ccc1N1CCOCC1	?	?
Cc1c(Cl)cccc1NC(=O)CSc1nc(=O)n(Cc2ccccn2)c2c1CCC2	?	-18%
CCOC(=O)N/N=C/c1cc(C)n(-c2cccc3ccccc23)c1C	-19%	-19%
CCCc1cc(=O)[nH]c(SCc2nc3ccccc3o2)n1	-5%	-6%
Cc1cccc(NS(=O)(=O)c2ccc3c(c2)oc(=O)n3C)c1C	i	-12%
Cn1c(C(=O)NCC2CCCO2)cc2c(=O)n3ccccc3nc21 (stereo not given)	-3%	-16%
COc1ccc2nc(N3CCN(C(=O)C4CC4)CC3)sc2c1	-14%	-5%

From PubChem
